# From PubChem BioAssay
# PABP FP inh – blocks human PABP binding to poly(A) RNA | 290,000 tested, 1% active | inhibition, % at 35 µM | fluorescence polarization;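 active means 50% or more with normal probe brightness, or confirmed in later tests; inconclusive means above 50% with abnormal brightness, or retests that disagree; inactive means below 50% or failed in later tests; about a fifth of its hits are not listed in these tables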;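 further: calls also rest on retests at 20 µM and on dose response follow-up; controls were probe without protein and protein plus probe with vehicle; some compounds called inactive have numbers as strong as hits; many hits fall short of the cut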
# Target sequence (P11940 whole entry, looked up): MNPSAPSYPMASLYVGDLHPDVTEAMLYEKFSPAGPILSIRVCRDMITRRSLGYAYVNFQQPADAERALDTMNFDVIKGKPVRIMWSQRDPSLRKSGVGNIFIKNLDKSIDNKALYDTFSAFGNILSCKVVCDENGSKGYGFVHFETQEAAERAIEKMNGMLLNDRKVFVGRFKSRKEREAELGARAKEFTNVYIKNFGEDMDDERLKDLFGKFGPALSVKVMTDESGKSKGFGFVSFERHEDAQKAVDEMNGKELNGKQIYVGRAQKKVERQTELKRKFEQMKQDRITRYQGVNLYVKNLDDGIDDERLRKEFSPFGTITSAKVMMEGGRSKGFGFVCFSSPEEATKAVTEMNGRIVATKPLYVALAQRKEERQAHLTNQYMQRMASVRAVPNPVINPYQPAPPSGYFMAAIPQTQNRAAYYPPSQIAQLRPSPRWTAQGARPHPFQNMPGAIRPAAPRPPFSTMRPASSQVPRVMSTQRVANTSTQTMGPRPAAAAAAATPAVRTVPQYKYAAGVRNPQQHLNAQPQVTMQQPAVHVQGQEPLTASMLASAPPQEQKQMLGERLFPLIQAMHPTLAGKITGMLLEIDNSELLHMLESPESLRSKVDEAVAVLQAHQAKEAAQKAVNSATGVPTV
# Rce1 inhib – blocks yeast Ras-converting enzyme. calls only. 290,000 tested, 0.27% active. yeast membranes, quenched prenylated peptide cleavage fluorescence. AID 2563;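 active means fall in fluorescence gain of 50% or more versus controls, with final raw signal at or below 3038400; inconclusive means same 50% fall but final raw signal above 3038400; inactive means fall in fluorescence gain under 50%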;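 further: plate controls were neutral control wells for no effect and wells lacking membranes for full effect; tested at 10 µM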
# eIF4H inh – inhibitors of RNA binding by human eIF4H | Q15056 | eIF4H fluorescence polarization binding assay | inhibition, % at 35 µM | 290,000 tested, 0.94% active | AID 2012;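 active means 50% or more with normal probe brightness, or confirmed in later tests; inconclusive means above 50% with abnormal brightness, or retests that disagree; inactive means below 50% or failed in later tests; about a fifth of its hits are not listed in these tables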;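 further: calls also rest on retests at 20 µM and on dose response follow-up; 0% = protein and probe with vehicle and 100% = probe without protein; strong numbers were not always called active; many hits fall short of the cut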
# CSC inhib – blocks cancer stem cells; 300,000 tested, 1.1% active; inhibition, % at 7.5 µM; AID 2717; cancer stem cell-like cells viability, luminescence;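 active means mean at 75% or more and at least half the replicates too; inconclusive means mean and replicates disagree; tested in HMLE shEcad cells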;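 further: 0% = median of negative and 100% = median of positive control wells; the first replicate is given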
# Yeast UUG start – yeast start codon fidelity modulation | S. cerevisiae UUG-firefly luciferase reporter, luminescence/redox ratio | activity score, % at 18.7 µM | 350,000 tested, 0.13% active;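 active means replicate mean at a twofold rise or more, about +100% in these data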;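 further: firefly luciferase made from a UUG start codon reports start codon fidelity; reporter light over untreated wells divided by growth signal over untreated wells; some hits fall short of that in this replicate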
# MT1-MMP act inh – blocks activation of human MT1-MMP; 360,000 tested, 0.061% active; HT1080 RFP-PRO-GFP cells, GFP/RFP ratio fluorescence, overnight; percent of plate control window, DMSO zero; GFP/RFP ratio change, % at 20 µM;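 active means GFP/RFP ratio change of at least 30% with cell ATP level not reduced by more than half and red fluorescence within 50% of control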; further: strong numbers were not always called active
#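 Test system: HT1080 cells expressing an RFP-PRO-GFP fluorescent reporter construct / Compound dosing: single-point 20 µM compound, 1% DMSO / Schedule: cells overnight before dosing, compound overnight, 37 °C, 5% CO2 / Evaluation: GFP/RFP fluorescence ratio / Control set: DMSO and RFP-L50D-GFP cell wells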
# Env fusion inh – inhibitors of HIV Env-mediated cell fusion. HeLa-JRFL Env/CEM21 cell fusion, luciferase. AID 651610. 360,000 tested, 1.1% active. inhibition, % at 12.3 µM;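 active means mean replicate inhibition score of at least 50 and every replicate individually at or above 50; inconclusive means only one of the two criteria met; inactive means mean below 50 and not all replicates reaching 50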;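 further: 0% = plate neutral controls and 100% = maraviroc near 300 nM; one replicate is shown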
# eIF4H inh retest – also measured in eIF4H inh; calls as there; inhibition, %; compound at 20 µM; confirmation average;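 mean of two retest wells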
# PABP FP inh retest – recorded beside PABP FP inh, whose call it bears; inhibition, %; compound at 20 µM; confirmation repeats;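 mean of two retest wells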
# MT1-MMP act inh RFP – second read-out of MT1-MMP act inh, no call of its own (marks repeat the call); RFP signal change, %; measured here: RFP expression control read;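 0 = vehicle wells; hits needed this value within 50% of zero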
# * = called active by the depositor; i = inactive; ? = inconclusive; . = not tested or not shown; + = active, no number.
SMILES,PABP FP inh,Rce1 inhib,eIF4H inh,CSC inhib,Yeast UUG start,MT1-MMP act inh,MT1-MMP act inh RFP,Env fusion inh,others
NC(=O)c1ccccc1NC(=O)N1CCOCC1,6,i,1,4,-3,3,2,8,
COc1ccc(Cl)cc1N1C(=O)/C(=C\c2sccc2C)N=C1SCC(=O)NC1CC1,-8,i,-6,18,-13,-4,-3,9,
Cc1nnc(SCC(=O)N2CC(=O)Nc3ccccc32)n1-c1ccccc1,-1,i,-2,4,-14,1,-1,-37,
COc1ccc(-n2c(-c3ccc(Cl)cc3)n[nH]c2=S)c(OC)c1,.,.,.,.,-29,3,4,-6,
COC(=O)c1cccc(CSC(=S)N2CCCC2)c1,2,i,-3,11,-14,-2,0,28,
Cc1ccc(SCC(=O)N/N=C/c2ccco2)cc1,14,i,-1,-4,-14,1,-2,-5,
CN(Cc1ccccc1)C(=O)C1CCN(S(C)(=O)=O)CC1,-4,i,-11,0,.,0,2,3,
Cc1ccccc1NC(=O)NC(N)=O,24,i,-1,-9,.,-2,4,-26,
O=S(=O)(c1ccc(Br)cc1)c1cnc2ccccc2n1,-7,i,10,14,.,-14,-15,20,
Cc1c(C)c2c(OCC(=O)NCc3cccnc3)cc3c(c2oc1=O)CCC(C)(C)O3,-6,i,7,-11,10,2,-2,.,
CCC(O)CNc1nc(SC)nc2sc3c(c12)CCN(C)C3 (stereo not given),-7,?,13,5,-4,-14,-2,8,
Cc1ccc(C(=O)O)cc1N1CCCC1=O,-4,i,9,-1,.,2,3,-3,
CC1(CC(=O)O)C(=O)N=C2C=CC=CN21 (stereo not given),10,i,6,.,-13,4,2,.,
CCOc1ccccc1-n1c(=S)sc2c(=O)n(-c3ccccc3)c(=S)[nH]c21,-1,i,-11,-3,.,-4,-2,6,
O=C(CCC1CCCC1)N1CCN(S(=O)(=O)Cc2ccccc2)CC1,-3,i,0,-13,3,2,-6,-16,
CCCc1cc(=O)[nH]c2nnc(SCC(=O)NC3CCCCC3)n12,.,i,.,-20,-11,1,3,3,
CC1CCN(C(=O)c2ccc3c(=O)n4c(nc3c2)CCCCC4)CC1,4,i,-3,26,10,-2,0,-5,
Cc1cc(C)nc(Nc2n[nH]c(-c3ccccc3Cl)n2)n1,-7,i,5,-14,.,-1,1,-26,
COCCNC(=O)c1onc(CSc2ccc(F)c(F)c2)c1C(=O)NCCOC,.,i,.,-12,7,1,5,11,
O=S(=O)(NC(CO)Cc1ccccc1)c1ccc(Br)cc1F (stereo not given),.,.,.,.,-15,-3,-2,?,
O=C(COC(=O)[C@H](Cc1ccccc1)NC(=O)c1ccco1)Nc1ccccc1,.,.,.,-24,-9,0,3,.,
O=C(c1cc(-c2ccccc2)on1)N1CCCC1,-1,i,-2,.,-25,-7,-1,.,
O=c1cc(-c2ccccc2Cl)oc2ccc([N+](=O)[O-])c(O)c12,-6,i,11,37,1,-2,-8,-21,
Oc1cc(O)cc(/C=C/c2ccc(O)c(O)c2)c1,.,.,.,66,-86,0,-8,-8,
O=C(NCCCN1CCOCC1)c1cc(-c2ccccc2)on1,-2,i,0,-8,-11,7,6,.,
N#CC1=C2SCN(c3ccccc3)CN2C(=O)CC1c1cccs1 (stereo not given),76*,i,23*,.,-28,3,-1,9,eIF4H inh retest=63*;PABP FP inh retest=58*
COC(=O)c1cn(NC(=O)c2cccc(N(C)C)c2)c(=O)c2ccccc12,1,i,-12,-13,12,7,-1,-92,
Cc1csc(Nc2ccc(Cl)cc2)[n+]1-c1ccc(Cl)cc1,-6,i,9,3,.,1,-6,-5,
CC(C)(C)S(=O)N1Cc2ccc(CO)cc2[C@H]1CCO (stereo not given in full),.,.,.,.,-9,2,4,-5,
Nc1ccc2nc(-c3cc(Cl)c(N)c(Cl)c3)[nH]c2c1,-6,i,-7,4,-23,16,-12,-195,
CCNC(=S)NNC(=O)c1cc(-c2ccccc2C)nc2ccccc12,6,i,14,4,-37,8,5,.,
Cc1ccc(-c2nnn(CC(=O)N(c3cccc(O)c3)C(C(=O)NC(C)(C)C)c3cccs3)n2)o1 (stereo not given),-7,i,2,.,.,-4,-3,.,
COc1ccc(CCNC(=O)C2CCN(c3nccc(C)n3)CC2)cc1,-8,.,-4,4,.,-1,1,8,
Oc1cccc(C2c3[nH]c4ccccc4c3CCN2Cc2ccoc2)c1 (stereo not given),17,i,18,-1,.,-8,1,-21,
Clc1ccc(/C=C/c2ncc[nH]2)c(Cl)c1,-1,i,-6,-2,-40,1,3,-55,
CCCCn1c(CN2CCOCC2)nc2c1c(=O)n(C)c(=O)n2C,13,i,-11,-22,-16,7,3,6,
COC(=O)c1ccc(OCC(O)CN2CCc3cc(OC)c(OC)cc3C2c2ccccc2)cc1 (stereo not given),2,i,2,-1,-2,-4,-13,28,
CN(C)CC(C(=O)c1ccccc1)c1ccccc1 (stereo not given),5,i,-7,54,.,-9,-23,.,
Nc1cccc(-c2cc(-c3ccccc3)nc(-c3cccc(N)c3)n2)c1,-5,i,-12,2,.,-5,-7,-12,
COc1ccc(COC(=O)C2=C(C)NC(=O)NC2c2ccc(F)cc2)cc1 (stereo not given),-7,i,-10,3,-9,-8,-15,2,
CN(CC(=O)Nc1ccccc1Br)C(=O)COc1cccc2c1OC(C)(C)C2,.,i,.,.,-9,4,6,.,
CCOC(=O)C(C)n1cnc2scc(-c3ccc(C)cc3)c2c1=O (stereo not given),-2,i,-4,-8,5,-2,1,-34,
CCc1ccc(NC(=O)Nc2cnccn2)cc1,10,i,-15,3,-16,-2,0,-18,
O=C(Nc1c(C(=O)O)oc2ccc(Br)cc12)c1ccccc1,20,i,-7,7,-13,-6,1,.,
C=CCC[C@@H](Cc1ccc(F)cc1)C(=O)OC[C@@H](Cc1c[nH]c2ccccc12)NC(=O)[C@@H](CC=C)CC(=O)N[C@@H](CO)Cc1ccccc1,.,.,.,-3,15,-16,-11,-204,
CCOc1ncccc1C(=O)Nc1ccccc1C(=O)NCc1ccc2c(c1)OCO2,-5,i,-3,7,-10,1,2,-4,
COc1ccc(C(=O)OCC(=O)NCc2ccccc2)c(OC)c1OC,-12,i,-1,-11,-10,-10,0,10,
CCC(C(=O)O)n1c2ccccc2c2cn[nH]c(=O)c21 (stereo not given),32,i,13,-1,-11,-2,1,?,
NCCC(=O)N1c2ccccc2Sc2ccc(Cl)cc21,4,i,-10,8,10,0,1,-55,
CCN(CC(=O)Nc1c(F)cccc1F)C(=O)CSCC(=O)Nc1cc(C)on1,.,i,.,0,.,0,5,-10,
# (list continues)
SMILES,PABP FP inh,Rce1 inhib,eIF4H inh,CSC inhib,Yeast UUG start,MT1-MMP act inh,MT1-MMP act inh RFP,Env fusion inh,others
CCSC1(SCC)N=C(N)C2(C#N)C(c3ccccc3)NC3=C(CCC3)C12C#N (stereo not given),75*,i,72*,-7,-14,-5,4,.,
COn1c(=O)c(-c2cccs2)[n+]([O-])c2ccccc21,3,i,-1,9,-15,-15,1,-95,
CC(C)CCn1c(SCc2ccc(Cl)cc2)nc2c1c(=O)[nH]c(=O)n2C,-8,i,2,-17,-23,4,-9,16,
O=C1c2cc(F)ccc2-n2c1nc1ccccc1c2=O,11,i,70,39,.,-8,2,19,eIF4H inh retest=0;PABP FP inh retest=6
Cc1cccc(C)c1NC(=O)COC(=O)CCC(=O)c1cccs1,5,i,5,-1,.,2,5,-91,
COc1ccc(OC)c(S(=O)(=O)NCc2ccccc2)c1,7,i,-2,-12,-14,-1,4,3,
OCCOCCNc1ncnc2c1c(-c1ccccc1)cn2-c1ccccc1,-5,i,-7,-11,-6,0,2,9,
COC(=O)CSc1nc2sc3c(c2c(=O)n1-c1ccccc1)CCN(C)C3,16,i,22,-5,-5,-14,-2,-20,
CS(=O)(=O)c1cccc(-c2nnc(NC(=O)CCS(=O)(=O)c3ccccc3)o2)c1,.,i,.,-5,.,4,2,.,
COc1ccccc1CC(=O)Nc1ccccc1C(=O)O,-5,i,-12,1,-10,-5,-1,-17,
COc1cccc(-c2cc3nc(NCc4ccc5occc5c4)n(C)c(=O)c3s2)c1,.,.,.,.,-22,-6,-21,19,
O=C(O)c1ccc(N/N=C/C=C/c2ccc([N+](=O)[O-])o2)cc1,5,i,24,4,-8,-16,37,-9,
NC(=S)N/N=C/c1coc2ccc(F)cc2c1=O,-5,i,0,-6,-22,-8,-3,-1,
CCOC1(c2ccccc2)OC(=O)c2ccccc21 (stereo not given),-5,i,-4,-4,.,-3,4,6,
Brc1ccc(CNCc2cccs2)cc1,2,i,1,-7,.,2,-2,-8,
CCCCCCN1C(=O)C(O)=C(C(C)=O)C1c1ccccc1[N+](=O)[O-] (stereo not given),11,.,-5,.,.,0,0,-3,
O=C(COC(=O)CNC(=O)c1ccccc1F)NC12CC3CC(CC(C3)C1)C2,.,.,.,3,-15,1,4,.,
O=C(Nc1cc(Cl)cc(Cl)c1)c1coc(=O)c(Br)c1,19,+,20,1,-1,-4,4,-8,
Cc1ccc(-n2ncc3c(=O)n(CC(=O)OCc4ccccc4)cnc32)cc1,-4,i,-4,-7,9,16,2,-179,
CCC(C)[C@H](NC(=O)[C@@H]1Cc2ccccc2CN1)C(=O)NCc1ccc(C)cc1 (stereo not given in full),.,.,.,.,-9,-1,1,-7,

# Two records drawn at random from the list so far:
SMILES,PABP FP inh,Rce1 inhib,eIF4H inh,CSC inhib,Yeast UUG start,MT1-MMP act inh,MT1-MMP act inh RFP,Env fusion inh,others
O=C(O)c1ccc(N/N=C/C=C/c2ccc([N+](=O)[O-])o2)cc1,5,i,24,4,-8,-16,37,-9,
O=C(Nc1cc(Cl)cc(Cl)c1)c1coc(=O)c(Br)c1,19,+,20,1,-1,-4,4,-8,

# New compounds follow:
SMILES,PABP FP inh,Rce1 inhib,eIF4H inh,CSC inhib,Yeast UUG start,MT1-MMP act inh,MT1-MMP act inh RFP,Env fusion inh,others
CN1CCN(C(=O)C2(NC(=O)NCc3ccccc3)CCCCC2)CC1,4,i,-6,-1,-18,-2,-2,.,
Cc1ccc(C(=O)Nc2cccc(S(=O)(=O)N3CCCC3)c2)o1,.,.,.,10,-35,5,2,23,
OC[C@@H]1CN(Cc2ccco2)C[C@H](n2cnc3c(NCc4ccc(F)cc4)ncnc32)O1,.,.,.,.,-6,3,3,2,
CC(C)C[C@H](NC(=O)NCc1ccc(F)cc1)C(=O)O,21,i,-5,-4,-18,10,8,-2,
Cc1cc2oc(C(=O)NCC(c3ccco3)N3CCCC3)c(C)c2cc1C (stereo not given),.,.,.,.,-3,-1,1,2,
CCCCS/C(=C(/C#N)C(N)=O)c1cc2c([nH]1)CCCC2,-13,i,1,30,-24,-14,-5,-25,
Cc1nn(-c2ccccc2)c(N2CCCC2)c1/C=N/NC(=O)c1cc2ccccc2cc1O,-2,i,37,44,.,-10,-3,9,
O=C(Nc1ccc(C(=O)N2CCCCC2)cc1)c1ccc([N+](=O)[O-])cc1,-1,i,2,2,1,-2,-5,11,
CCc1ccc(-n2c(SCC(=O)Nc3ccc(C(=O)O)cc3)nnc2-c2ccncc2)cc1,-5,i,-3,-9,.,.,.,-7,
Cc1ccc(C2c3c(C)nn(-c4ccc([N+](=O)[O-])cc4)c3N=C3C(=O)Nc4ccccc4N32)cc1 (stereo not given),-8,i,-2,16,.,.,.,.,
COc1cccc(C(=O)Nc2ccc(F)cc2F)c1,8,i,-3,4,-16,0,1,-95,
Cc1cccc(NC(=S)NNc2cccc(Cl)c2)c1,3,i,1,57,-36,-2,-2,-13,
